RecA intein inh – Mtb RecA intein splicing inhibition | P9WHJ3 | cell-free RecA intein splicing, fluorescence | inhibition, %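 (about 9 µM by stock and volumes)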 | 0.75% of 290,000 active; in the data active means inhibition above about 30%; inconclusive means no clear call, values can overlap the other calls;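 further: 0% = vehicle wells and 100% = reference inhibitor control wells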
Target sequence (P9WHJ3 whole entry, looked up): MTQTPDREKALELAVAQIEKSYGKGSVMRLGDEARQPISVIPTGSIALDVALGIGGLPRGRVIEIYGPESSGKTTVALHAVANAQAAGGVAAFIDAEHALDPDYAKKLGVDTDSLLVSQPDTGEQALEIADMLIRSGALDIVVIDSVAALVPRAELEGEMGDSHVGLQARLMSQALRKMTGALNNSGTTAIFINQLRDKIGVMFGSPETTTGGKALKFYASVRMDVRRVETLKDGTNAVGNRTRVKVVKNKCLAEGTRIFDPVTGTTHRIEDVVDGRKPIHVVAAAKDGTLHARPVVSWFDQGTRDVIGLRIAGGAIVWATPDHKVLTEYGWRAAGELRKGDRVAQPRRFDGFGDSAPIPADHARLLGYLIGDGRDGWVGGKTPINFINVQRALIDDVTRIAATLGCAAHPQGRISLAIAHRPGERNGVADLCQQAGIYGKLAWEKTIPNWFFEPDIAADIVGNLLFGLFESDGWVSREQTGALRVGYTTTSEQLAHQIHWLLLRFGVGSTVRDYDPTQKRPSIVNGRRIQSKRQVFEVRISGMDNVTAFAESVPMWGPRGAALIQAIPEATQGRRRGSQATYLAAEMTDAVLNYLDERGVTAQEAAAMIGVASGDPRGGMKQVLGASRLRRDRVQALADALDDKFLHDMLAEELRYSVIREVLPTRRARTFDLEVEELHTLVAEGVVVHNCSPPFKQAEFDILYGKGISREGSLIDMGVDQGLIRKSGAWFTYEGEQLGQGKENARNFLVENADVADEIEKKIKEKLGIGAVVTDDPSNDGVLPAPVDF
YopH inh – inhibitors of Yersinia enterocolitica YopH tyrosine phosphatase. inhibition, %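 (about 10 µM by stock and volumes)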. fluorescence Ex485/Em525. AID 898. 0.16% of 140,000 active;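 active means inhibition of 50% or more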;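 further: controls were vehicle for no effect and minimum signal wells for full effect; inactives centre near -20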
Mtb growth – M. tuberculosis H37Rv growth inhibitors, H37Rv strain (AID 1626); M. tuberculosis H37Rv growth inhibition; higher % means a stronger effect; 0.95% of 220,000 active; inhibition, % at 10 µM, or IC50 in µM where a hit was titrated;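 active means confirmed in a dose series; inconclusive means inhibition above 80% but not taken into the dose series; inactive means below 80% or under 30% at every dose of the series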;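 further: bacteria incubated seven days before Alamar blue readout; 0% = bacteria only wells and 100% = bacteria with antibiotic wells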
Arbovirus anti – blocks arbovirus infection; inhibition, % at 10 µM; 0.37% of 200,000 active; AID 1251; arbovirus infection cell-based antiviral screen;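 active means inhibition from about 30%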;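 further: bluetongue infection of BSR cells; cell survival read as ATP light after 72 h; 0% = infected wells without compound and 100% = uninfected wells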
Mtb betalactam – beta-lactam sensitization of Mtb H37Rv. M. tuberculosis H37Rv growth with meropenem, percent inhibition; hits of this screen are not shown here. inhibition, % at 25 µM. 0.27% of 330,000 active;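 active means about 74% or more and at least 40 points above the plate without the antibiotic, then above 30% in a dose series; inconclusive means first-round hits that could not be retested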;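 further: growth measured after seven days incubation then overnight dye step; 0% = bacteria only wells and 100% = bacteria with antibiotic; twin plates without the antibiotic show which effects depend on it; some results filed as inactive read as strong as hits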
Arbovirus anti repeat – recorded beside Arbovirus anti, whose call it bears; inhibition, %; measured here: 10K subset replicate screen; many hits read low in the repeat;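 first of two repeat runs on a subset; 0% = infected and 100% = uninfected wells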
* hit, by the source's call; ? = inconclusive; / = no result given.

SMILES | RecA intein inh | YopH inh | Mtb growth | Arbovirus anti | Mtb betalactam | others
CCOc1ccccc1N(CC(=O)NCc1ccccc1)C(=O)CCC(=O)Nc1cc(C)ccn1 | 1.0 | / | -2% | 3 | -2
O=[N+]([O-])c1ccccc1N/N=C\c1ccccc1F | 3.2 | / | 3% | / | -2
COc1ccccc1NC(=O)N1CCN(c2ccnc3cc(Cl)ccc23)CC1 | 2.8 | / | 10% | / | 3
CS(=O)(=O)N(CC(=O)Nc1cc(Cl)ccc1Cl)c1ccccc1 | / | -33 | 0% | 10 | 6
COc1cccc(-n2nnnc2SCC(=O)Nc2ccc(NC(C)=O)cc2)c1 | 4.1 | / | / | / | -1
Cc1ccc(/C=N/NC(=S)NCCc2ccccc2)s1 | 1.3 | / | 5% | 2 | 2
COC(=O)c1cc(C(=O)OCC(=O)N(C)C2CCS(=O)(=O)C2)cc([N+](=O)[O-])c1 (centres undefined) | -1.6 | / | -7% | 6 | -6
Cc1ccc(N2C(=O)C3C(C2=O)C(C(=O)c2ccc(Cl)cc2)N2CCCC32)cc1 (centres undefined) | 2.8 | -42 | 6% | 10 | 5
Cc1c(Cl)cccc1NC(=O)NN1CCN(C)CC1 | 0.5 | / | / | / | -6
COc1cccc(N=c2oc3c(C)ncc(CO)c3cc2C(N)=O)c1 | -0.8 | -2 | -6% | 5 | -12
COC(=O)c1cc(C)nc(N)c1C#N | -4.4 | -3 | -11% | 5 | 1
CN(c1ccccc1)c1nc(N)c([N+](=O)[O-])c(Nc2cccc(F)c2)n1 | 0.1 | / | / | / | -1
CC(C)CN1CCC(=O)N([C@H](CSc2ccccc2)Cc2ccccc2)CC1 | 1.7 | / | / | / | -11
COC(CNS(=O)(=O)c1ccc(S(=O)(=O)N2CCCC2)cc1)OC | 1.1 | / | -2% | 0 | -2
COc1ccc(-c2noc(-c3cccc(OC)c3OC)n2)cc1OC | 3.1 | / | 11% | 6 | 59 | Arbovirus anti repeat=1
COC(=O)NNC(=O)C(c1ccccc1)c1ccccc1 | 0.5 | / | / | / | -4
O=C(CCCC(=O)Nc1cccnc1)Nc1cccnc1 | -3.5 | 0 | -1% | 3 | -8 | Arbovirus anti repeat=-1
Cc1ccc(-n2nc3c(c2NC(=O)c2c(F)cccc2Cl)CS(=O)(=O)C3)cc1C | -3.7 | / | / | / | 8
COC(=O)C1CC(O)CN1S(=O)(=O)c1cccs1 (centres undefined) | -3.3 | / | -1% | -2 | 2
NC(=O)CSc1nc2ccccc2c(=O)n1Cc1ccccc1 | -1.7 | / | / | / | -7
CC(C)C(NS(=O)(=O)c1ccccc1)C(=O)OCc1cc([N+](=O)[O-])cc2c1OCOC2 (centres undefined) | 1.7 | -12 | 6% | 19 | 8
O=c1ccc2cc(S(=O)(=O)NCc3ccccc3)ccc2[nH]1 | 0.2 | / | / | / | 2
COc1cc2c(cc1OC)C(C(=O)NC(C)C)C1CCCCN1C2=O (centres undefined) | 1.3 | / | 3% | / | 2
COc1ccc(C2c3ccc4ccccc4c3Oc3ncn(CCCO)c(=N)c32)cc1 (centres undefined) | 18 | / | 12% | / | 83
O=C(Nc1cccc([N+](=O)[O-])c1)N1CCCCCC1 | 0.0 | / | / | / | -13
COc1ccc(/C=N/NC(=O)c2ccncc2)cc1Cn1nc([N+](=O)[O-])c(Br)c1C | -4.7 | / | ? | 1 | 95
Cc1ccc(C(=O)Nc2ccccc2C(=O)N2CCCCCC2)cc1 | 2.6 | / | 4% | / | -11
O=C1C2C3C=CC(C3)C2C(=O)N1c1n[nH]c(-c2cccnc2)n1 (centres undefined) | 0.0 | -26 | -1% | 3 | 5
COc1ccc(-c2nc3n(n2)C(=O)CC(c2ccco2)S3)cc1 (centres undefined) | 3.7 | -43 | -5% | 10 | -4
CC(=O)NS(=O)(=O)c1cccnc1Nc1ccc(Cl)cc1 | -1.1 | -39 | -4% | 0 | -5
COc1ccccc1NC(=O)CSc1nnnn1-c1ccc(C)cc1 | 4.8 | -13 | 0% | -5 | -8
O=C(CSc1ncnc2scc(-c3ccccc3)c12)Nc1ccc(C(=O)O)cc1 | -1.2 | / | -12% | / | -14
C[C@@]1([C@@H](NC(=O)c2cccs2)c2ccc(-c3ccccc3)cc2)C[C@H]1C1CCCCC1 | -1.2 | -17 | -9% | 1 | -3
O=C(O)CCC(=O)Nc1ccc(N2CCOCC2)cc1 | 0.1 | -25 | -4% | -2 | -7
COc1cc(/C=N/n2nnnc2N)cc(OC)c1OC | -0.6 | / | -9% | / | -10
COc1ccccc1N1C(=O)CC(=O)NC1=O | -3.0 | / | / | / | -2
CCN(CC(=O)NC1CCS(=O)(=O)C1)C(=O)/C=C/c1cccs1 (centres undefined) | 0.8 | / | 3% | 13 | -1
O=c1ccc(Oc2nc(N3CCCCC3)nc(N3CCCCC3)n2)n[nH]1 | -2.5 | -3 | -4% | -8 | 1
CCN(C(=O)COC(=O)/C=C/c1cccc([N+](=O)[O-])c1)c1ccccc1 | 0.0 | / | 0% | 1 | -5
C=CC[n+]1c(C)csc1Nc1ccc(C(=O)O)cc1 | -4.5 | / | 1% | 1 | -6
CCc1ccc(-c2cc3c(=O)n(CC(=O)N4CCCCCC4)nc(C)n3n2)cc1 | 1.4 | / | / | / | 9
Cc1ccc(CNC(=O)c2cc(-c3ccccc3)nn2CC2CC(c3cccnc3)=NO2)cc1 (centres undefined) | 2.1 | / | 8% | / | -1
Cc1ccc2c(c1)[C@@H](O)C[C@@H](C)N2N=O | -1.7 | -21 | -1% | 11 | 1
CCCN(Cc1nnc(-c2ccccc2Cl)o1)C(=O)c1cccc(S(=O)(=O)N2CCOCC2)c1 | 0.7 | / | / | / | -18
CC(=O)N/N=C(\C)c1cccc(C(F)(F)F)c1 | -1.7 | / | 3% | -1 | -4
CCC(=O)N(Cc1cc(=O)[nH]c2ccccc12)c1ccccc1C | 2.5 | / | -12% | / | -3
COc1cccc(CNS(=O)(=O)c2c(C(=O)N3CCCCC3)c(C)n(C)c2C)c1 | -0.7 | / | / | / | -3
CCOCCOC(=O)C1=C(C)NC(=O)NC1c1cc2c(cc1Br)OCO2 (centres undefined) | -2.0 | / | / | / | -6
O=c1ccc(Cl)nn1-c1ccccc1 | 0.5 | / | / | / | -3
COc1cccc(COC(=O)Nc2ccccc2F)c1 | -0.5 | / | / | / | 4
The results go on:
SMILES | RecA intein inh | YopH inh | Mtb growth | Arbovirus anti | Mtb betalactam | others
COc1ccc(C(C)NC(=O)CC23CC4CC(CC(C4)C2)C3)cc1 (centres undefined) | 0.4 | / | / | / | 8
Cc1occc1-c1nnc(SCC(=O)c2c[nH]c3ccccc23)n1C | / | 4 | 1% | 3 | -1
COc1cccc(NC(=O)CSc2nnc(Cc3cccs3)n2-c2ccc(C)cc2)c1 | 0.7 | 3 | 6% | 10 | 16
CCN1CCN(C(=O)C2CCCN(S(=O)(=O)c3cccc4nsnc34)C2)CC1 (centres undefined) | -0.2 | / | / | / | -3
CN(C)CCn1c(N)nc2ccccc21 | -4.0 | / | 2% | / | -6
O=C(Nc1ccc(S(=O)(=O)NC2CCCCC2)cc1)c1ccco1 | 1.1 | -33 | -6% | 4 | 2
O=C(Nc1ccc(CN2CCOCC2)cc1)c1ccccc1F | 0.4 | 9 | -6% | -4 | -3
COc1ccc(/C=N/NC(=O)c2ccc(NC(=O)c3cccc([N+](=O)[O-])c3)cc2)c(OC)c1 | -0.9 | / | -3% | 3 | 3
CCC(O)C1CCN(C(=O)c2cc(COc3ccc(F)cc3F)on2)CC1 (centres undefined) | 1.5 | / | / | / | -8
COc1cc(/C=C2/SC(=S)N(Cc3ccccc3)C2=O)ccc1OCC(=O)O | 37* | / | / | / | 6

The last 4 records of the section above are carried over, then new ones follow:
SMILES | RecA intein inh | YopH inh | Mtb growth | Arbovirus anti | Mtb betalactam | others
O=C(Nc1ccc(CN2CCOCC2)cc1)c1ccccc1F | 0.4 | 9 | -6% | -4 | -3
COc1ccc(/C=N/NC(=O)c2ccc(NC(=O)c3cccc([N+](=O)[O-])c3)cc2)c(OC)c1 | -0.9 | / | -3% | 3 | 3
CCC(O)C1CCN(C(=O)c2cc(COc3ccc(F)cc3F)on2)CC1 (centres undefined) | 1.5 | / | / | / | -8
COc1cc(/C=C2/SC(=S)N(Cc3ccccc3)C2=O)ccc1OCC(=O)O | 37* | / | / | / | 6
CC1CCCCC1NC(=O)COC(=O)c1c2c(nc3ccccc13)/C(=C/c1ccco1)CC2 (centres undefined) | -76 | -9 | 7% | -1 | -7
CC(C)Oc1ccc(C(=O)OC(C)C(=O)NC2CCCCC2C)cc1 (centres undefined) | -3.9 | / | / | / | -5
COc1ccc(NC(=O)CSc2ccccc2)c([N+](=O)[O-])c1 | -1.4 | / | 3% | 5 | -2
Cc1cc(N=Cc2c(O)n(-c3cccc(Cl)c3)c(=O)c3ccccc23)no1 | -6.7 | -13 | 55% | -12 | 54
CC(=O)c1cccc(NC(=S)NC(=O)CC(C)(C)C)c1 | -1.6 | -24 | 20% | 13 | 7
COc1ccc(C2=NO[C@@H]3C(=O)N(c4cccc(C)c4C)C(=O)[C@H]23)cc1OC | 5.2 | 4 | -5% | 1 | -2
Cc1cc(/C=C(\C#N)C(=O)NCc2cccs2)c(C)n1-c1ccc([N+](=O)[O-])cc1 | 1.7 | -7 | -1% | -4 | 2
O=C1CC(c2ccco2)CC2=C1C=Nc1ccccc1N2 (centres undefined) | 6.5 | -26 | -2% | 7 | ?
CC(C)CCNC(=O)Cn1c2c(c(-c3ccccc3Cl)cc1=O)CCC2 | 3.8 | -41 | 6% | -12 | -5
O=C(/C=C/c1cc2ccccc2o1)c1ccccc1O | 5.3 | / | 3% | / | 28
CC1CN(C(=O)COC(=O)c2c(Cl)cccc2Cl)CC(C)O1 (centres undefined) | -2.7 | / | -17% | 10 | -4
COc1ccc(-n2nc(C(=O)NCC(=O)N3CCCC3)c3ccccc3c2=O)cc1Cl | -0.6 | / | / | / | -1
O=C(CCS(=O)(=O)c1ccc(Cl)cc1)OCC(=O)N1CCCCC1 | -2.0 | -28 | -4% | 10 | -2
CC(=O)c1ccc(S(=O)(=O)NCCc2csc(-c3cccnc3)n2)cc1 | -2.0 | / | / | / | -6
Cc1cccc(C(=O)NCCc2nnc(SCC(=O)Nc3nc(C)cs3)n2C)c1 | -2.0 | -27 | -8% | 2 | -20
COc1ccccc1NC(=O)CN1CCN(C(=O)C2CCCO2)CC1 (centres undefined) | 1.2 | / | / | / | -10
CCC1(C)Cc2c(sc3nc(SC)nc(N)c23)CO1 (centres undefined) | -8.4 | -4 | -5% | -2 | -4
COC(=O)c1cc(NC(=O)c2ccccc2)c(=O)oc1/C=C/Nc1ccc(Oc2ccccc2)cc1 | -5.5 | / | ? | -3 | /
COCCn1c(C)cc(C(=O)COC(=O)c2n[nH]c3ccccc23)c1C | 1.5 | -37 | 0% | 5 | -2
COC(=O)/C=C1\SC(N2CCOCC2)=C(c2ccc(OC)cc2)C1=O | 8.4 | / | 11% | -2 | 42

A draw from above in order of molecular weight, high to low.
SMILES | RecA intein inh | YopH inh | Mtb growth | Arbovirus anti | Mtb betalactam | others
COC(=O)c1cc(NC(=O)c2ccccc2)c(=O)oc1/C=C/Nc1ccc(Oc2ccccc2)cc1 | -5.5 | / | ? | -3 | /
COc1ccc(-n2nc(C(=O)NCC(=O)N3CCCC3)c3ccccc3c2=O)cc1Cl | -0.6 | / | / | / | -1
Cc1cccc(C(=O)NCCc2nnc(SCC(=O)Nc3nc(C)cs3)n2C)c1 | -2.0 | -27 | -8% | 2 | -20

Of the compounds above, two contain bromine.
SMILES | RecA intein inh | YopH inh | Mtb growth | Arbovirus anti | Mtb betalactam | others
COc1ccc(/C=N/NC(=O)c2ccncc2)cc1Cn1nc([N+](=O)[O-])c(Br)c1C | -4.7 | / | ? | 1 | 95
CCOCCOC(=O)C1=C(C)NC(=O)NC1c1cc2c(cc1Br)OCO2 (centres undefined) | -2.0 | / | / | / | -6

A portion of the library, so the mix of outcomes need not match the whole.
